rRNA inh HTS: reduced GFP signal of wild-type E. coli, primary screen, bacterial rRNA inhibitor project, GFP/RFP fluorescence, OD600, single point; GFP signal change (wild-type ribosome), % (concentration not given with the values); E. coli WT GFP vs humanized-ribosome RFP mutants, 24 h; active compounds read low; DMSO median 0, no signal -100; 350,000 tested, 1.6% active;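 active means significant combined selectivity score with lowered wild-type GFP, culture density cut under 30%, mutant RFP and density less affected; inactive means any of these conditions unmet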; further: one replicate is shown; some compounds called inactive have numbers as strong as hits
rRNA inh HTS OD600: also measured in rRNA inh HTS; calls as there; OD600 change, %; measured here: OD600 growth;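 optical density of the mix in the first replicate; 0 = DMSO median and -100 = no signal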
rRNA inh HTS RFP: recorded beside rRNA inh HTS, whose call it bears; RFP signal change, %; measured here: RFP humanized mutant strains;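 first replicate; 0 = DMSO median and -100 = no signal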
Numbers without * were called inactive; & = joins results of further samples. A portion of the library (hit frequency here may not be typical).

rRNA inh HTS	rRNA inh HTS OD600	rRNA inh HTS RFP	Structure
2	10	-2.0	CO[C@H]1CN(C)C(=O)c2cc(NS(=O)(=O)c3cn(C)cn3)ccc2OC[C@H](C)N(CC2CC2)C[C@@H]1C
-2	-12	4.4	CCCN(C)C[C@@H]1Oc2cc(C#Cc3ccc(F)cc3)ccc2S(=O)(=O)N([C@@H](C)CO)C[C@H]1C
2	6	-4.8	C[C@@H]1CN([C@H](C)CO)C(=O)c2cc(NC(=O)CCCN(C)C)ccc2O[C@@H]1CN(C)S(=O)(=O)c1ccc(F)cc1
-3	-7	-0.4	C[C@@H]1CN([C@@H](C)CO)C(=O)Cc2cc(N(C)C)ccc2O[C@H]1CN(C)C(=O)Nc1ccc(F)cc1
0	1	0.9	C[C@@H]1CN([C@@H](C)CO)C(=O)Cc2cc(NC(=O)NC3CCCCC3)ccc2O[C@H]1CN(C)C(=O)NC1CCCCC1
-1	9	5.7	Cc1cccc(C)c1N1CCN(C(c2ccnc3ccccc23)c2nnnn2-c2ccc3c(c2)OCCO3)CC1 (stereo unspecified)
-2	-2	1.6	COc1ccc(NC(=O)N(C)C[C@H]2OCc3cn(nn3)CCCC(=O)N([C@@H](C)CO)C[C@H]2C)cc1
-6	8	-4.6	C[C@@H]1CCCCO[C@H](CN(C)CC2CCCCC2)[C@H](C)CN([C@@H](C)CO)C(=O)c2cc(NC(=O)Nc3ccc(C(F)(F)F)cc3)ccc2O1
3	-8	-0.4	CC(=O)Nc1ccc2c(c1)C(=O)N(C)[C@@H]1CC[C@H](CC(=O)NCCCN3CCOCC3)O[C@@H]1CO2
1	6	-0.3	CC(C)NC(=O)Nc1ccc2c(c1)CC(=O)N([C@H](C)CO)C[C@@H](C)[C@@H](CN(C)Cc1ccc(C(=O)O)cc1)O2
-1	2	-0.9	O=C(NC[C@@H]1[C@@H](c2ccccc2)[C@@H](CO)N1Cc1ccccn1)C1CCCC1
-8	-3	0.6	Cc1ccc(S(=O)(=O)N[C@@H]2C=C[C@H](CC(=O)NCc3ccc(Cl)c(Cl)c3)O[C@@H]2CO)cc1
-8	-12	0.6	O=C(Cc1ccccc1)N1C[C@H]2[C@@H](c3ccccc31)[C@H](CO)N2S(=O)(=O)c1ccccc1
0	0	9.8	CN(C)CC(=O)Nc1ccc2c(c1)[C@@H]1C[C@@H](CC(=O)NCc3ccc(-c4ccccc4)cc3)O[C@@H](CO)[C@@H]1O2
6	6	-1.0	COc1cccc(C(=O)N2CCC[C@H]2C(=O)N2CCC[C@H]2C(=O)NCc2ccc(F)cc2F)c1
-5	-5	3.7	CCCC(=O)Nc1ccc2c(c1)OC[C@@H](C)N(CCC(F)(F)F)C[C@H](C)[C@H](OC)CN(C)C2=O
3	-27	25	C[C@@H]1CCCCO[C@H](CN(C)Cc2ccccc2)[C@H](C)CN([C@H](C)CO)C(=O)c2cc(NC(=O)Nc3ccccc3)ccc2O1
0	5	3.1	COc1ccc(CC(N)c2csc(NC(=O)NCCc3ccc(OC)c(OC)c3)n2)cc1 (stereo unspecified)
3	4	-4.3	CC(C)NC(=O)N1C[C@@H]2[C@H](c3ccccc31)[C@@H](CO)N2C(=O)Nc1ccccc1
-2	-2	-0.5	C[C@@H]1CN([C@@H](C)CO)C(=O)c2cc(NC(=O)c3ccccc3)ccc2O[C@@H](C)CCCCO[C@@H]1CN(C)S(=O)(=O)c1cn(C)cn1

(next part)
rRNA inh HTS	rRNA inh HTS OD600	rRNA inh HTS RFP	Structure
-7	-2	0.9	Cc1ccc(S(=O)(=O)Nc2ccc3c(c2)C(=O)N([C@@H](C)CO)C[C@@H](C)[C@H](CN(C)Cc2ccc(C(=O)Nc4ccccc4N)cc2)O3)cc1
-1	-4	3.9	O=C(Nc1ccccc1)N1CCCCN2[C@H](CO)[C@H](c3ccc(Br)cc3)[C@H]2C1
-2	2	-1.6	CC(C)NC(=O)N(C)C[C@H]1Oc2ncc(C#CC3(O)CCCC3)cc2C(=O)N([C@@H](C)CO)C[C@H]1C
-12	-31	1.3	O=C(Nc1cccc(Cl)c1)N1C[C@H]2[C@@H](c3ccccc31)[C@@H](CO)N2Cc1ccccc1Cl
-1	5	-1.4	COc1ccc(S(=O)(=O)N(C)C[C@H]2Oc3cc(-c4cccc(F)c4)ccc3S(=O)(=O)N([C@H](C)CO)C[C@@H]2C)cc1
9	4	-0.6	CS(=O)(=O)Nc1ccc2c(c1)[C@H]1C[C@H](CC(=O)NCc3ccncc3)O[C@H](CO)[C@H]1O2
-2	-8	-1.0	Cc1ccc(S(=O)(=O)N(C)C[C@@H]2Oc3ccc(NC(=O)Nc4ccc5c(c4)OCO5)cc3C(=O)N([C@H](C)CO)C[C@H]2C)cc1
-1	0	-2.1	CC(C)C#Cc1ccc([C@@H]2[C@@H](CO)N3C(=O)CN(C(=O)NC4CCCC4)C[C@H]23)cc1
5	7	6.6	C[C@@H]1CN([C@H](C)CO)C(=O)c2cc(-c3ccc(C#N)cc3)cnc2O[C@H]1CN(C)Cc1cncnc1
-11	-44	18	C#CCNC(=O)C[C@@H]1C[C@@]2(C(=O)OC)CCCCC=C2N(Cc2ccc(Cl)cc2Cl)C1=O
-3	-6	0.8	C[C@@H]1CN([C@H](C)CO)C(=O)c2cc(NS(=O)(=O)c3ccc(F)cc3)ccc2O[C@@H]1CN(C)C(=O)Nc1ccc2c(c1)OCO2
-2	8	0.9	C[C@@H]1CN([C@H](C)CO)C(=O)c2cccc(NC(=O)c3ccncc3)c2O[C@@H]1CN(C)S(=O)(=O)c1ccc(F)cc1
7	10	0.2	COCC(=O)N(C)C[C@H]1Oc2ncc(-c3ccccc3F)cc2C(=O)N([C@H](C)CO)C[C@@H]1C
-1	-6	-1.3	CO[C@@H]1CN(C)C(=O)c2ccc(NC(=O)NC(C)C)cc2OC[C@H](C)N(Cc2ccccc2)C[C@@H]1C
-1	-6	0.9	COC(=O)[C@]12C[C@H](CC(=O)NCc3ccccc3)C(=O)N(Cc3ccc4c(c3)OCO4)C1=C[C@H](COCc1ccccc1)O[C@@H]2C
-2	-14	2.0	COc1ccccc1CN1[C@@H]2CN(C(=O)C3CCC3)c3ccccc3[C@@H]2[C@@H]1CO
6	11	-3.0	CCN1CCN(C(C(=O)NC2CCCCC2)c2cc3ccccc3o2)CC1 (stereo unspecified)
0	2	1.1	CN(C)C(=O)c1cccc(-c2ccc3c(c2)[C@@H]2[C@@H](CCN2C(=O)Nc2ccc(F)cc2)[C@H](CO)N3C)c1
-63	-77	-30	CC1(Cc2ccc(Cl)s2)C(=O)Nc2c(Cl)ccc(Cl)c21 (stereo unspecified)
5	4	0.4	C[C@@H]1CCCCO[C@H](CN(C)Cc2ccccc2)[C@@H](C)CN([C@H](C)CO)C(=O)c2cc(NS(=O)(=O)c3ccc(F)cc3)ccc2O1

Going on with the list.
rRNA inh HTS	rRNA inh HTS OD600	rRNA inh HTS RFP	Structure
2	2	-0.4	CNC(=O)C[C@H]1CC[C@@H]2[C@@H](COc3ccc(NC(=O)Cc4cccs4)cc3C(=O)N2C)O1
3	6	3.6	O=C(c1nc2ccc(Cl)cn2c1CN1CCC[C@H]1CO)N1CCc2ccccc2C1
0	10	4.9	COc1ccc(NC(=O)N2CC(=O)N3[C@H](C2)[C@H](c2ccc(-c4ccccc4)cc2)[C@@H]3CO)cc1
2	2	-1.1	C[C@@H]1CN([C@H](C)CO)S(=O)(=O)c2ccc(-c3ccncc3)cc2O[C@@H]1CN(C)Cc1ccncc1
5	14	-3.2	CC(C)NC(=O)Nc1ccc2c(c1)C(=O)N([C@H](C)CO)C[C@H](C)[C@@H](CN(C)Cc1ccc(C(=O)O)cc1)OCCCC[C@H](C)O2
2	8	2.0	C[C@@H]1CN([C@H](C)CO)C(=O)c2cc(NC(=O)c3ccncc3)ccc2O[C@@H](C)CCCCO[C@@H]1CN(C)S(=O)(=O)c1ccccc1
-1	11	-1.3	C[C@H](CO)N1C[C@H](C)[C@H](CN(C)Cc2ccc(C(=O)Nc3ccccc3N)cc2)Oc2c(cccc2N(C)C)C1=O
5	8	-5.6	CC(C)C(=O)N1CCCCCCN1C(=O)C(C)C
-5	-9	-1.2	COc1ccc(S(=O)(=O)Nc2cccc3c2O[C@H](CN(C)Cc2ccc(C(F)(F)F)cc2)[C@H](C)CN([C@@H](C)CO)C3=O)cc1
-2	1	-2.0	O=C(Cc1ccccn1)N[C@H]1C=C[C@@H](CC(=O)N2CCCCC2)O[C@@H]1CO
9	6	1.5	CCOC(=O)C1=C(C(=O)OCC)C2N(Cc3ccccc3)c3ccccc3[C@@]23C[C@@H](C(=O)OC)N(S(=O)(=O)c2ccc(C(F)(F)F)cc2)C3=N1 (stereo partly specified)
-2	13	-2.5	CCCC#Cc1ccc([C@@H]2[C@H](CO)N3C(=O)CN(C(=O)c4ccncc4)C[C@@H]23)cc1
1	-2	-3.1	Cn1cnc(S(=O)(=O)N2C[C@@H](O)COC[C@H]3O[C@H](CC(=O)NCc4cccc(F)c4)CC[C@@H]32)c1
0&0	-3&4	6.8&0.9	C[C@@H]1CN([C@@H](C)CO)C(=O)c2c(c3ccccc3n2C)-c2ccccc2CO[C@H]1CN(C)S(=O)(=O)c1ccc(C#N)cc1
-2&-2	5&-1	4.4&-0.7	C[C@H](CO)N1C[C@H](C)[C@H](CN(C)S(C)(=O)=O)OCc2ccccc2-c2c(n(C)c3ccccc23)C1=O
6	7	0.2	COc1ccc(C(CNC(=O)CCNS(=O)(=O)c2ccccc2)N2CCOCC2)cc1 (stereo unspecified)
3	4	-0.2	COCC(=O)N1CC2(C1)CN(C(=O)Nc1ccccc1F)[C@@H](CO)c1[nH]c3cc(OC)ccc3c12
-1	-3	0.5	C[C@H](CO)N1C[C@H](C)[C@@H](CN(C)C(=O)c2ccncc2)Oc2ncc(C#CC3CCCCC3)cc2C1=O
1	-3	0.9	C[C@H](CO)N1C[C@H](C)[C@@H](CN(C)Cc2ccc(C(=O)O)cc2)OCCCC[C@H](C)Oc2ccc(NC(=O)Nc3ccc(C(F)(F)F)cc3)cc2C1=O
-1	9	-0.2	CN1C(=O)c2cc(NC(=O)c3cnccn3)ccc2OC[C@@H]2O[C@H](CC(=O)NCC3CC3)CC[C@@H]21

Sorted by count of non-hydrogen atoms (rising): some entries from above
rRNA inh HTS	rRNA inh HTS OD600	rRNA inh HTS RFP	Structure
-1	-4	3.9	O=C(Nc1ccccc1)N1CCCCN2[C@H](CO)[C@H](c3ccc(Br)cc3)[C@H]2C1
-2	13	-2.5	CCCC#Cc1ccc([C@@H]2[C@H](CO)N3C(=O)CN(C(=O)c4ccncc4)C[C@@H]23)cc1
-8	-3	0.6	Cc1ccc(S(=O)(=O)N[C@@H]2C=C[C@H](CC(=O)NCc3ccc(Cl)c(Cl)c3)O[C@@H]2CO)cc1
-3	-7	-0.4	C[C@@H]1CN([C@@H](C)CO)C(=O)Cc2cc(N(C)C)ccc2O[C@H]1CN(C)C(=O)Nc1ccc(F)cc1
-1	9	5.7	Cc1cccc(C)c1N1CCN(C(c2ccnc3ccccc23)c2nnnn2-c2ccc3c(c2)OCCO3)CC1 (stereo unspecified)
0&0	-3&4	6.8&0.9	C[C@@H]1CN([C@@H](C)CO)C(=O)c2c(c3ccccc3n2C)-c2ccccc2CO[C@H]1CN(C)S(=O)(=O)c1ccc(C#N)cc1
-3	-6	0.8	C[C@@H]1CN([C@H](C)CO)C(=O)c2cc(NS(=O)(=O)c3ccc(F)cc3)ccc2O[C@@H]1CN(C)C(=O)Nc1ccc2c(c1)OCO2
-2	-2	-0.5	C[C@@H]1CN([C@@H](C)CO)C(=O)c2cc(NC(=O)c3ccccc3)ccc2O[C@@H](C)CCCCO[C@@H]1CN(C)S(=O)(=O)c1cn(C)cn1
-6	8	-4.6	C[C@@H]1CCCCO[C@H](CN(C)CC2CCCCC2)[C@H](C)CN([C@@H](C)CO)C(=O)c2cc(NC(=O)Nc3ccc(C(F)(F)F)cc3)ccc2O1

Next compounds follow:
rRNA inh HTS	rRNA inh HTS OD600	rRNA inh HTS RFP	Structure
-3	3	-7.2	O=C(C[C@@H]1CC[C@@H]2[C@H](COC[C@H](O)CN2S(=O)(=O)c2ccc(F)cc2)O1)NCC1CC1
-3	-16	1.1	CCc1oc(-c2ccc(OC)cc2)c(C(=O)OCCCCCO)c1C(C)OCCO (stereo unspecified)
5	7	-8.8	Cn1cnc(S(=O)(=O)N2CC[C@@H]3[C@@H](CO)Nc4ccc(C#Cc5ccccc5F)cc4[C@@H]32)c1
3	6	-1.2	CNC[C@@H]1Oc2ccc(NC(=O)Cn3cnnn3)cc2CC(=O)N([C@H](C)CO)C[C@@H]1C
-2	-26	11	COc1ccc(-c2cnc3c(c2)C(=O)N([C@H](C)CO)C[C@H](C)[C@H](CN(C)C(=O)Nc2cccc4ccccc24)O3)cc1
-26*	-20*	-3.9*	Cn1ccc(=O)c2cc([N+](=O)[O-])ccc21
-11	-35	5.4	Cc1ccc(-c2ccc3c(c2)O[C@H](CN(C)Cc2cncnc2)[C@H](C)CN([C@@H](C)CO)S3(=O)=O)cc1
-3	1	-6.1	S=C(NN=Cc1ccccn1)Nc1ccccn1
31	16	1.2	CCOC(=O)C1CCCN(C(=O)c2[nH]c(C(F)(F)F)nc2-c2ccccc2)C1 (stereo unspecified)
-14	-10	0.5	CC(=O)N1N=C(c2ccc(Br)cc2)CC1c1cccc([N+](=O)[O-])c1 (stereo unspecified)
